High-throughput results as filed in PubChem.
PINK1 modulator: changes PINK1 expression; 410,000 compounds, 0.2% hits; PINK1 immunofluorescence, high-content cytometry, 24 h; Potency, µM (highest dose often 76.6 µM), inactives show top-dose activation (PINK1 increase), actives largely listed as activators; active = well fitted activation curve with a large enough effect; inconclusive = small, poorly fitted or top-dose-only effect; inactive = flat fitted curve, though single readings scatter; cell line not stated here;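 further: potency means the concentration at half of the fitted maximal effect; % of control where 0% means no effect; nearly all actives have a fitted effect of over 65% in size; a mitochondrial uncoupler was the plate control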
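PINK1 protein level read as immunofluorescence by microplate cytometer in a fixed, stained stable cell line after 24 h exposure to five compound concentrations, with CCCP as control.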
Sfp inh: inhibitors of Bacillus subtilis Sfp phosphopantetheinyl transferase; Q9F4F7; Biochemical Sfp PPTase activity, qHTS; Potency, µM, inactives show max response, negative = inhibition, actives largely listed as inhibitors; 310,000 compounds, 3.5% hits; active means well fitted inhibition curve with a large enough effect; inconclusive means small, poorly fitted or top-dose-only effect, or another doubt; inactive means no such curve, though single readings can be large or run the other way;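 further: the enzyme is Sfp with the accession as filed and its product quenches rhodamine fluorescence; potency means the concentration at half of the fitted maximal effect; 0% = enzyme reaction without inhibitor and -100% = no enzyme wells; top concentration of the series not given in the record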
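Sfp 15 nM + cpd, 15 min RT; start w/ rhodamine-CoA 5 uM, BHQ-2-YbbR 12.5 uM (final); 50 mM Hepes pH 7.6, 10 mM MgCl2, 0.01% NP-40, 0.01% BSA; read 525/598 nm at 0 and 30 min.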
Menin MLL FP FL: displaces fluorescein MLL peptide from human menin; FP activity change, % at 61.4 µM; Fluorescence polarization, fluorescein-MLL peptide displacement from menin; 290,000 tested, under 10 active; inconclusive = falling polarisation curve, or a change in total fluorescence; inactive = total fluorescence flat and polarisation flat or rising; no compound was filed as active; the % refers to the polarisation; negative = inhibition;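 further: % of control where 0% means no effect; inhibitors lower the polarisation; unlabelled MLL peptide was the positive control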
TRPML1 agonist: activates the human TRPML1 channel | TRPML1-expressing cells, Ca2+ dye fluorescence, FDSS; host cell line not named in the record; reference of the full effect not given here | 410,000 compounds, 0.12% hits | activation, % (no concentration beside the values); in the data active = activation above about 50%; inconclusive = about 30% to 50%; inactive = below about 30%; further: 0% is about no effect; the text of the record puts the active cut at 80%
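Agonist activity was taken from a 110 s kinetic Ca2+ dye read on the FDSS after pinning compounds onto TRPML1-DL cells. The cells were seeded at 1,500/well with Tet inducer, incubated about 16 h, then dye-loaded at room temperature.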
ClpP mod: qHTS Assay for Activators of ClpP. 340,000 compounds, 1.9% hits. purified B. subtilis ClpP, FRET peptide cleavage, 20 min. ATP-dependent Clp protease proteolytic subunit (Bacillus subtilis (strain 168)), P80244. Potency, µM (top dose mostly 57.5 µM), inactives show at the highest dose activity change, negative = active; active = well fitted falling curve with a large enough effect; inconclusive = small, poorly fitted or top-dose-only effect; inactive = no such curve, though single readings can be large or run the other way; further: potency means the concentration at half of the fitted maximal effect; the source files actives as falling curves though it sought activators and does not explain the sign; nearly all actives have a fitted effect of over 65% in size; many hits overshoot -100%
Target sequence (P80244 whole entry, looked up): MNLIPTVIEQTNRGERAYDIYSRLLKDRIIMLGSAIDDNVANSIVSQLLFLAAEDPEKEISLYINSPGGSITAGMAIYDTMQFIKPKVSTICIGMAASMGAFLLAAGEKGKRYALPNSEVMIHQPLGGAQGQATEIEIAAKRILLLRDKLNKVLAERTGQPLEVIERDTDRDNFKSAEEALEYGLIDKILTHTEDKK
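ClpP 10 microg/mL final, pH 8 Tris/KCl buffer with BSA, glycerol, Tween-20; compound pinned in; FRET-FV substrate; RT 20 min; Ex320/Em430; ΔFRET vs ADEP 5.8 microM, DMSO, no enzyme.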
TRPV1 potentiator: enhances activation of the human vanilloid receptor TRPV1; potentiation, % at 8.33 µM; 320,000 compounds, 0.02% hits; Q8NER1; TRPV1-expressing cells, Fluo-8 calcium influx, capsaicin EC20 potentiation; host cell line not named in the record; control for the full effect not named in the record; active means potentiation above 80%; inconclusive means 30% to 80%; inactive means below 30%; further: 0% is about no effect
Target sequence (Q8NER1 whole entry, looked up): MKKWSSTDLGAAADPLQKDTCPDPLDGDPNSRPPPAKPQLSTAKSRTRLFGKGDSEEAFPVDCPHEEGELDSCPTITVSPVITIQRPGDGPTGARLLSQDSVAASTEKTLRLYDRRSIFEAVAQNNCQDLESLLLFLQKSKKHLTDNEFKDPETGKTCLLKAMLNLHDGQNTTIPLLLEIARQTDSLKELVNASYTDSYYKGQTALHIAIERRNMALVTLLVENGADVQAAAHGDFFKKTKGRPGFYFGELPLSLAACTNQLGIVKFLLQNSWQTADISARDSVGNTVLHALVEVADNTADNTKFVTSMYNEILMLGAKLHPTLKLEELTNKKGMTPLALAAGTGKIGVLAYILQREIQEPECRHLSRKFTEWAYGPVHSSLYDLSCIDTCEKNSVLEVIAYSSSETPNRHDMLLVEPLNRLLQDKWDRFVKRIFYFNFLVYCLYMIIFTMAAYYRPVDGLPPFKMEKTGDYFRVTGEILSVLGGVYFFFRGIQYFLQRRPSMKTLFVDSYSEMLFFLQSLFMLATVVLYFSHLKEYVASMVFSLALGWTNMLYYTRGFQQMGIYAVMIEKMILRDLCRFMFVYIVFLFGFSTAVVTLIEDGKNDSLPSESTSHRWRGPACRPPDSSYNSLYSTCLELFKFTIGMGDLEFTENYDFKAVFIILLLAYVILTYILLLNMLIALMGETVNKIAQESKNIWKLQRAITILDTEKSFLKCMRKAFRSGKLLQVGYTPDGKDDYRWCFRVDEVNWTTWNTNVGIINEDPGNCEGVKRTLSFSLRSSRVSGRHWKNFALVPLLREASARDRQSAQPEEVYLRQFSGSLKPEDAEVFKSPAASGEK
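TRPV1-expressing cells were cultured overnight at 35.5C and loaded with Fluo-8 calcium dye for 40 to 90 min at room temperature. After a 10 s baseline, compound was added and calcium influx was read kinetically for 3 min (ex 480/em 520 nm).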
TRPML1 inh: blocks the human TRPML1 channel. activity change, negative = inhibition, % (concentration not given with the values). Q9GZU1. TRPML1-inducible cells, Ca2+ dye fluorescence, FDSS; hits give low values; inhibition of EC80 agonist-evoked calcium signal. AID 624415. 390,000 compounds, 0.02% hits; in the data active means activity change below about -50%; inconclusive means about -30% to -50%; inactive means above about -30%;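 further: stimulus is agonist 54-4 at its EC80 concentration; on the % scale 0 is the no-effect control and ±100 the full control effect; the text of the record puts the active cut at -80%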
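TRPML1-DL cells, Tet-induced overnight (~16 h, 37 °C) at 1,500 cells/well, were loaded with Ca8 no-wash dye plus quencher for 45-90 min at room temperature. Compounds were pinned during FDSS kinetic reading; agonist 54-4 at EC80 (4 uM final) then added.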
Active calls of the source: *; ? = inconclusive; · = not tested or not shown; [ ] = another dose, or the depositor's remark. An unsorted share of the library. About 4.4% of those tested had a hit in this group.

Compound,Menin MLL FP FL,TRPV1 potentiator,ClpP mod,TRPML1 agonist,TRPML1 inh,PINK1 modulator,Sfp inh
Cc1ccc2nc(SCC(=O)O)nc(C)c2c1,6.7,1.1,-12.8%,0.2,17.6,-0.7%[38.3 µM],-5.6%
O=C(C[C@H]1C/C=C\C[C@H](Cc2ccc(F)cc2)C(=O)OCCNC1=O)NCCO,·,·,1.3%,0.0,-6.2,0.6%,·
CC1(C)CC(=O)N(CC(=O)O)c2ccccc2S1(=O)=O,0.5,-4.6,-0.8%,0.8,-4.0,-2.0%,4.0%
O=C(CCC(=O)N1CCN(S(=O)(=O)c2ccc3ccccc3c2)CC1)NCC(F)(F)F,5.6,19.6,0.1%,1.2,7.3,-1.7%,19.9%
COC(=O)c1ccc(N2C(c3cc(OC)cc(OC)c3)=Cc3ccc(OC)cc3C2CC(=O)c2ccco2)cc1 (configuration not stated),·,·,-14.0%,-0.1,·,-0.3%,·
O=C(CCNC(=O)c1ccc(Br)o1)NCc1ccccn1,?,-2.4,-9.2%,-0.2,-8.1,1.2%[38.3 µM],?
CCOC(=O)c1cnc2c(ccc3ccccc32)c1Nc1cccc(C(F)(F)F)c1,·,·,-15.2%,-0.6,-12.1,1.0%,·
O=C(CNC(=O)c1ccc(Cl)cc1Cl)OCC(=O)N1CCCC1,·,6.9,1.6%,1.4,1.8,0.7%,·
O=C(CSc1nc2ccccc2c(=O)n1CC1CCCO1)NCCc1ccccc1 (configuration not stated),·,-21.7,-1.4%,-1.5,6.2,0.0%,5.8%
CC(C)OCc1cc(CN2CCN(c3cccc(C(F)(F)F)c3)CC2)c(O)c2ncccc12,·,·,-0.5%,0.5,-0.7,5.0%,·
CNC(=S)N(Cc1ccc2c(c1)OCO2)C1CC(=O)N(c2ccc(F)cc2)C1=O (configuration not stated),1.7,-10.9,1.7%,1.6,6.5,?,5.5%
O=C(CNC(=S)N(Cc1ccccc1)Cc1cccnc1)NC1CC1,-1.0,5.0,25.1µM*,0.1,1.2,-1.2%,27.4%
O=C(Nc1ccccc1C(=O)NC1CCCC1)NC1CCCC1,6.4,-0.8,-2.0%,-0.1,4.5,-0.8%,9.6%
O=C(c1cc(-c2ccccc2)nc2ccccc12)N1CCOCC1,-0.4,-14.9,-3.1%,3.5,-15.0,-2.3%[38.3 µM],11.7%
O=C(O)C(Cc1cccs1)c1cccs1 (configuration not stated),·,·,·,1.0,25.3,-1.5%,·
Fc1cccc(Cl)c1/C=C/c1cnc2ccccc2n1,-0.9,-12.3,-1.0%,-0.9,-1.2,2.0%,-14.0%
CCOC(=O)c1cc(-c2ccc3c(c2)OCO3)nc2onc(C)c12,1.1,7.4,-23.1%,2.6,-6.0,7.3%,-5.2%
O=S(=O)(Cc1ccccc1)N1CCN(c2ncccn2)CC1,·,6.4,·,-0.2,12.4,18.1%,15.7%
CNc1ccccc1C(=O)OCC(=O)N1CCN(c2ccc(OC)cc2)CC1,·,-13.0,1.1%,-0.2,12.3,-0.6%,9.9%
CCc1ccc(NC(=O)Cn2c(=O)n(-c3ccccc3C)c(=O)c3c2c2cc(OC)ccc2n3C)cc1,·,·,4.0%,0.1,-8.4,4.8%,·
Cc1cc(C)n(-c2nc(NCCCN(C)C)c3c4c(sc3n2)CCCC4)n1,3.1,-13.6,·,0.6,8.0,-1.1%,-10.2%
CCOC(=O)N1CCN(CC(O)COCc2cc(OC)c(OC)c(OC)c2)CC1 (configuration not stated),4.2,18.6,-2.8%,0.1,-15.6,0.5%,4.4%
C#CCOCCOCCOCCNc1nc(N2CCN(C(=O)[C@H](CCCCN)n3cc(CCCC)nn3)CC2)nc(N2CCN(C(=O)[C@H](CCCCN)n3cc(CCC(=O)O)nn3)CC2)n1,·,-27.7,0.2%,-0.4,22.7,-0.1%,·
CCN(CC(=O)Nc1ccc(NC(C)=O)cc1)C(=O)c1ccc(C(=O)c2ccccc2)cc1,·,-7.3,-1.3%,0.1,-7.8,-1.5%,·
COc1ccc(/C(C)=N/Nc2nncc3ccccc23)cc1,3.1,3.7,-6.8%,-1.5,-5.9,5.7%,-0.9%
O=C(NC1CCCCC1)C1c2ccccc2OCC(=O)N1C1CC1 (configuration not stated),·,·,-0.4%,0.0,·,0.9%,·
COc1ccc(N/C=C\C(=O)c2ccc3c(c2)OCO3)cc1,8.7,5.8,0.8%,-0.6,-3.1,5.3%,13.5%
NC(=O)c1cc(C(=O)c2cccc(Cl)c2Cl)c[nH]1,1.6,?,·,-0.5,0.9,-1.0%,18.8%
COc1cccc(Cn2nnc(C(=O)Nc3cc(C)ccc3C)c2N)c1,·,·,-10.6%,-0.3,8.8,2.5%,·
CCCC(=O)N(c1ccc2oc(=O)sc2c1)S(=O)(=O)c1cccs1,6.1,-10.5,-1.8%,-0.8,?,-0.7%,?
COc1ccc(Nc2nccc(-c3cccc(N)c3)n2)cc1,-4.4,?,2.6%,·,·,-1.5%,1.0%
Cc1occc1C(=O)NNC(=O)c1ccc(Br)o1,-1.0,0.6,·,2.1,-3.1,-1.2%,2.5%
Cc1ccccc1NC(=O)C(Cc1ccccc1)n1cccc1 (configuration not stated),4.5,·,·,1.5,33.7,1.3%,11.1%
NC(=O)Cn1c(=O)oc2ccccc21,4.1,-1.6,0.9%,-0.4,-3.3,9.4%,14.8%
CC(=O)c1ccc(N2C(=O)N(Cc3cccc(C(F)(F)F)c3)c3ccccc3S2(=O)=O)cc1,·,·,1.7%,0.3,31.1,-0.4%,·
Cc1cc(C)n(-c2nc3ccccc3nc2Nc2ccc(Cl)cc2Cl)n1,·,·,-0.7%,1.7,-16.8,-1.1%,·
CCOC(=O)CN1C(c2ccc(O)cc2)Nc2ccc(Br)cc2C1c1ccccc1 (configuration not stated),1.3,-17.0,-2.9%,4.2,30.7,-2.1%,15.3%
CCCC(C)NC(=S)NC(=O)c1cc(S(=O)(=O)N2CCOCC2)ccc1C (configuration not stated),·,13.8,-4.4%,2.0,-8.9,2.7%,4.8%
N#Cc1ccc(NC(=S)NC(=O)CCc2ccc(S(=O)(=O)N3CCOCC3)cc2)cc1,0.1,-1.4,-0.9%,-0.3,-13.0,-0.1%,3.4%
O=C(CCCNS(=O)(=O)c1cccs1)N1CCN(c2cccc(Cl)c2)CC1,2.9,-23.5,-0.6%,-0.6,-6.4,-1.8%,15.5%
C[N+]1(C)CC(O)[C@H](C(=O)[O-])C1 (some centres not stated),3.1,·,·,·,·,1.4%,15.1%
O=[N+]([O-])c1ccc(Nc2nc(NCCO)nc(N3CCCC3)n2)cc1,21.3,-12.7,·,-0.7,0.9,14.3%,9.6%
Cc1c(NC(=O)NCCN2C(=O)C3C4C=CC(C4)C3C2=O)c(=O)n(-c2ccccc2)n1C (configuration not stated),1.8,·,-0.4%,-0.3,-5.6,-0.2%,20.6%
CS(=O)(=O)Nc1ccc2c(c1)OCC(=O)N2Cc1ccccc1,0.1,-2.6,0.4%,0.7,12.9,-0.3%,12.4%
O=C(OCN1C(=O)c2ccccc2C1=O)c1ccco1,0.2,-6.3,-1.3%,1.1,-8.3,1.4%,14.4%
COC(=O)CC1SC(=O)NC1=Nc1ccccc1 (configuration not stated),2.7,-12.6,-1.2%,0.0,18.7,·,6.9%
COCCNC(=O)C1(C)CCCN(C(=O)c2ccc(F)cc2Cl)C1 (configuration not stated),·,·,1.3%,-0.8,·,0.0%,·
CN(C)CCN(C(=O)c1ccc(N2C(=O)CCC2=O)cc1)c1nc2cc3c(cc2s1)OCCO3,-2.2,15.6,·,·,·,·,-13.2%
COc1ccccc1-c1nc(CNC(=O)Nc2ccccc2)c(C)o1,·,·,-10.4%,2.1,12.5,-0.7%,·
CC1(C(=O)Nc2cccc(C(F)(F)F)c2)Cc2c(-c3cccc(C(F)(F)F)c3)ccnc2O1 (configuration not stated),·,·,-19.4%,0.9,·,12.0%,·

Other structures
Compound,Menin MLL FP FL,TRPV1 potentiator,ClpP mod,TRPML1 agonist,TRPML1 inh,PINK1 modulator,Sfp inh
NC(=O)c1oc2ccccc2c1NC(=O)CN1CCCCC1,1.2,-10.0,-3.9%,2.4,-12.1,0.9%[38.3 µM],-16.5%
O=C(c1ccncc1)N(Cc1ccccc1)Cc1nc2ccccc2c(=O)[nH]1,7.2,2.2,0.4%,-0.1,27.4,1.1%,-2.0%
COc1ccc(-c2csc3ncnc(N4CCN(S(=O)(=O)c5cccs5)CC4)c23)cc1,·,-19.4,-1.4%,0.8,-2.9,0.2%,·
O=C(NCCc1ccc(Cl)cc1)C1CCN(Cc2cc3ccccc3n2Cc2ccccc2)CC1,·,·,-18.2%,2.4,-17.1,-0.1%,·
COc1cccc(-c2onc3ccc(C(C)=O)cc23)c1,5.7,0.0,-7.1%,3.9,-16.3,-2.3%,8.4%
Cc1cccn2c(=O)c3cc(C(=O)N4COCC4(C)C)n(C)c3nc12,2.0,-0.6,28.2µM*,-0.5,-10.4,2.3%,7.9%
NC(=O)C1CCN(C(=O)CCc2nc3ccccc3c(=O)[nH]2)CC1,2.6,-0.6,-1.7%,0.6,3.8,4.6%[38.3 µM],0.7%
COC(=O)Nc1nn(Cc2ccccc2F)cc1Br,0.2,8.2,0.2%,-0.7,8.2,?,12.7%
CCN(CC)c1ccc(/C=C/c2c(C)cnc3ccc(C)cc23)cc1,·,·,-0.8%,11.4,·,3.7%,·
C=CCOc1ccc(/C=C/C(=O)OCC(=O)N2CCCc3ccccc32)cc1,·,-12.7,-10.1%,1.0,4.6,7.3%,·
O=C(CCNC(=O)c1ccco1)Nc1ccc(C(F)(F)F)cc1,4.6,-4.1,·,-0.6,3.5,2.1%,17.7%
CCCCCCC(=O)N1C/C=C\C(c2ccc(OC)cc2)N(Cc2ccc(F)cc2)C(=O)[C@H]1Cc1ccccc1 (some centres not stated),0.8,8.9,-5.8%,0.2,68.8,0.5%,5.9%
CC(C)C(=O)N1CC(=O)Nc2ccc(F)cc2C1c1ccc(F)cc1 (configuration not stated),-2.5,12.0,1.0%,-0.7,22.4,0.7%,17.9%
CCCCCCNC(=O)O[C@H]1C[C@@H]2C(=O)N(c3ccccc3)C(=O)[C@@H]2[C@@H]2CN(S(=O)(=O)c3ccc(C)cc3)C[C@]12O,·,·,-0.3%,0.7,17.8,1.9%,·
COC(=O)c1ccccc1NC(=O)c1nc(S(=O)(=O)Cc2ccccc2F)ncc1Cl,·,·,0.3%,2.8,12.5,-0.1%,·
